Ab BasE inh – inhibitors of Acinetobacter baumannii siderophore enzyme BasE. purified BasE, fluorescence polarization binding displacement. inhibition, % (test concentration not listed). actives 0.1% (n = 84,000);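 active means both replicates above 25% with normal brightness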;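 further: 0% = negative plate control signal and 100% = positive plate control signal; stock transfer was 100 nL into about 30 µL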
KSHV LANA nucl – LANA-nucleosome interaction inhibition | FITC-LANA1-23 / chicken nucleosome fluorescence polarization; active compounds read low | z-score (concentration not given with the values) | actives 0.3% (n = 51,000);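 active means both repeat wells score below -2 in polarization z-score versus plate sample wells, excluding overly bright wells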;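 further: 100 nL library stock added to about 30 µL; numbers are from one replicate; some results filed as inactive read as strong as hits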
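Test system: purified chicken nucleosomes with FITC-labelled LANA N-terminal peptide (1-23); Input: 240 nM purified chicken nucleosomes (480 nM peptide binding sites), final; Medium: TEN-BT buffer, pH 7.5; Timing: 10–45 min, room temperature; Technique: fluorescence polarization, 480 nm excitation, 535 nm parallel and perpendicular emission; Replication: duplicates.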
The depositor's hits bear a star; & = joins results of further samples. Not all compounds are listed; the hit share may differ from the screen's.

`O=C(O)CSc1ccc(S(=O)(=O)N2CCCC2)cn1` gave Ab BasE inh -1.4.
COc1ccccc1CNC(=O)c1cnc2ccc(S(=O)(=O)N3CCOCC3)cc2c1Cl was read as Ab BasE inh -6.4 and KSHV LANA nucl 2.
`Nc1ccc(Cn2cccn2)cc1` gave Ab BasE inh -2.1 and KSHV LANA nucl 2.7.
Screening O=C(CSC(=S)N1CCCC1)Nc1ccccc1OC(F)F returned Ab BasE inh 0.0.
`N#Cc1ccc(C(=O)N(CC(=O)Nc2ccccc2C(F)(F)F)Cc2ccco2)cc1` gave Ab BasE inh 1.7.
Screening COc1ccccc1CC(=O)N1CCN(c2ccc(C(F)(F)F)cn2)CC1 returned Ab BasE inh -1.4.
Screening COc1ccc(-c2csc(-c3cccs3)n2)c(OC)c1 returned Ab BasE inh -2.5.
For Cc1cnc(C(=O)Nc2cc(S(C)(=O)=O)ccc2Cl)cn1 the results were Ab BasE inh -0.2.
CCCC(=O)Nc1ccccc1-c1nnc(SC)[nH]c1=O was read as Ab BasE inh 1.2 and KSHV LANA nucl -0.4.
Cc1cc(=O)oc(C)c1C(=O)O was read as Ab BasE inh 0.7 and KSHV LANA nucl -0.8.

The closing 3 entries of the part before open the next one:
For Cc1cnc(C(=O)Nc2cc(S(C)(=O)=O)ccc2Cl)cn1 the results were Ab BasE inh -0.2.
CCCC(=O)Nc1ccccc1-c1nnc(SC)[nH]c1=O was read as Ab BasE inh 1.2 and KSHV LANA nucl -0.4.
Cc1cc(=O)oc(C)c1C(=O)O was read as Ab BasE inh 0.7 and KSHV LANA nucl -0.8.
`O=C(CC(Cc1ccccc1)C(=O)O)Nc1cccc(C(F)(F)F)c1` (stereo not given) gave Ab BasE inh 1.5.
`COc1cc(/C=C/C(=O)N2CCC(C)CC2)ccc1OCc1ccccc1` gave Ab BasE inh -0.2.
`COC(=O)c1c(N)n(-c2ccc(C)c(C)c2)c2nc3ccccc3nc12` gave Ab BasE inh 1.0 and KSHV LANA nucl 0.23.
For CCn1c(SCC(=O)c2cc(C)n(CC3CCCO3)c2C)nnc1-c1ccccc1 (stereo not given) the results were Ab BasE inh 1.1.
`Cc1ccc(C2CC(c3cc(Br)ccc3O)=NN2)cc1` (stereo not given) gave Ab BasE inh -3.1 and KSHV LANA nucl 0.31.
O=C(CN1C(=O)COc2ccccc21)NC1CC1 was read as Ab BasE inh -1.0 and KSHV LANA nucl 1.8.
Cc1sc2c(c1C)CSCC2=O was read as Ab BasE inh -1.6 and KSHV LANA nucl -0.22.
Screening CCOC(=O)C1CCN(CC(=O)CNc2ccc(Cl)c(Cl)c2)CC1 returned Ab BasE inh 2.7.
`O=C(NCCN1Cc2ccccc2C1=O)c1ccc(Cl)cc1` gave Ab BasE inh 1.1 and KSHV LANA nucl -0.15.
Screening O=C(N/N=C/c1ccc(F)cc1)c1c(O)c2c([nH]c1=O)CCCC2 returned Ab BasE inh -1.1 and KSHV LANA nucl 0.14.
Screening COc1cc2c(c(OC)c1OC)-c1ccc(OC)c(=O)cc1[C@@H](NC(C)=O)CC2 returned Ab BasE inh -2.4&-3.3 and KSHV LANA nucl 0.25&0.23&1.1.
`CCN(CC(=O)Nc1ccc2c(c1)OCCO2)C(=O)c1ccc(CS(C)(=O)=O)cc1` gave Ab BasE inh 0.4.
For CC(NC(=O)Nc1ccc(F)cc1F)C1CCCO1 (stereo not given) the results were Ab BasE inh 0.3 and KSHV LANA nucl 0.13.
`COc1ccc(NC(=O)C2CC(=O)NC3=C2C(=O)CCC3)cc1` (stereo not given) gave Ab BasE inh 0.8 and KSHV LANA nucl -0.36.
`CCN(Cc1cccc(Cl)c1)C(=O)c1cnc(OC)cc1C(F)(F)F` gave KSHV LANA nucl -0.25.
Screening O=C1CN(C(=O)c2ccco2)c2ccccc2N1 returned Ab BasE inh 1.5.
CC(OC(=O)c1ccc2c(=O)n3c(nc2c1)CCCCC3)C(=O)N1CCCc2ccccc21 (stereo not given) was read as Ab BasE inh 1.8.
Screening COc1ccccc1N1CCN(C(=S)Nc2ccc(S(=O)(=O)N3CCOCC3)cc2)CC1 returned Ab BasE inh 0.0 and KSHV LANA nucl 0.25.
CCOC(=O)Nc1ccc2c(c1)N(C(=O)CCN(CC)CC)c1ccccc1S2=O (stereo not given) was read as Ab BasE inh 0.4 and KSHV LANA nucl 1.4.
For COc1cccc(-c2cc3nc(-c4ccccc4)cc(N4CCC(O)CC4)n3n2)c1 the results were Ab BasE inh -1.6 and KSHV LANA nucl 0.36.
For Cc1ccc(-c2n[nH]c3c2C(c2ccc(C(C)C)cc2)NC3=O)cc1 (stereo not given) the results were Ab BasE inh 3.9 and KSHV LANA nucl 0.68.
`CC(Sc1ccc(S(=O)(=O)N2CCOCC2)cn1)C(N)=O` (stereo not given) gave Ab BasE inh 1.3.
`N#CC(C#N)=Cc1cn(-c2ccccc2)nc1-c1ccccc1` gave Ab BasE inh -0.4 and KSHV LANA nucl 0.57.
Screening Cc1noc(C)c1CSc1ccc2ccccc2n1 returned Ab BasE inh -0.5.
CCN(CC(=O)Nc1ccc2c(c1)OCCO2)CC(=O)Nc1sccc1C#N was read as Ab BasE inh 5.6.
Screening CC(C)C1Oc2cc3oc(=O)ccc3cc2/C1=N\NC(N)=S (stereo not given) returned Ab BasE inh 1.4 and KSHV LANA nucl 0.39.
For CCCn1c2ccccc2c2cnn(CC(=O)Nc3ccccc3)c(=O)c21 the results were Ab BasE inh -2.8 and KSHV LANA nucl 3.2.
`CCn1c(CCC(=O)Nc2ccnn2Cc2cccs2)nc2cc(S(=O)(=O)N(C)C)ccc21` gave Ab BasE inh 0.1.
For CCC(C(=O)N1CCN(C(=O)c2ccco2)CC1)n1nc(C)c2sc3ccccc3c2c1=O (stereo not given) the results were Ab BasE inh -1.7 and KSHV LANA nucl -0.35.
Screening COc1ccc2c(c1)c(C(=O)CNc1nc(C)cs1)c(C)n2C returned Ab BasE inh 0.0.
Screening CCC(C(=O)N1CCN(S(C)(=O)=O)CC1)c1ccccc1 (stereo not given) returned Ab BasE inh 2.3 and KSHV LANA nucl 0.31.
Screening CC(C)Nc1nnc(SCc2cc(=O)n3ccsc3n2)s1 returned Ab BasE inh 0.7.
Screening O=C(NCCSCc1ccc2nonc2c1)c1ccc(Cl)cc1Cl returned Ab BasE inh 0.7 and KSHV LANA nucl -0.25.
CC(=O)N1CCc2cc(NC(=S)Nc3ccccc3Cl)ccc21 was read as Ab BasE inh -3.1.
For C=N[C@@H](C(=O)N[C@@H]1C(=O)N2[C@@H]1SC(C)(C)[C@@H]2C(=O)O)c1ccccc1 the results were Ab BasE inh 0.5 and KSHV LANA nucl 0.89.
O=C(C(Sc1ccccc1)c1ccccc1)N1CCN(c2ncccn2)CC1 (stereo not given) was read as Ab BasE inh 1.8.
For N#Cc1ccc(C2Nc3cccc4cccc(c34)N2)cc1 the results were Ab BasE inh 1.8 and KSHV LANA nucl -1.3.
`CC(C)(C)N1C(=O)c2ccccc2C1=O` gave Ab BasE inh 0.6.
For CCOC(=O)c1c(C(C)(C)C)oc2ccc(OCc3ccc(C(=O)OC)cc3)cc12 the results were Ab BasE inh 2.0.
For CC(=O)Oc1ccc2c(=O)c(-c3ccccn3)coc2c1 the results were Ab BasE inh 0.9.
`CN1C/C(=C/c2ccco2)C(=O)/C(=C/c2ccco2)C1` gave Ab BasE inh 1.2 and KSHV LANA nucl 0.39.
Cc1cc(C)n(CNc2ccc(I)cc2)n1 was read as Ab BasE inh 4.1 and KSHV LANA nucl -0.22.
`CC1(C)CC(=O)c2cc(C#N)c(SCC(N)=O)nc2C1` gave Ab BasE inh -1.2 and KSHV LANA nucl -0.21.
For CC(C)(C)C(=O)Nc1ccc2oc(=O)ccc2c1 the results were Ab BasE inh 1.6 and KSHV LANA nucl -1.2.
`O=C1NN=C(Cc2ccccc2)C1CCO` (stereo not given) gave Ab BasE inh -0.5 and KSHV LANA nucl -1.4.
Screening CCN(CC)c1ccc(NC(=O)C(C)C)cc1 returned Ab BasE inh 4.2.
`Oc1c(C(c2cccs2)N2CCCCC2)ccc2cccnc12` (stereo not given) gave Ab BasE inh 0.5.
O=C(NCCC1=CCCCC1)Nc1cccc(F)c1 was read as Ab BasE inh -0.8 and KSHV LANA nucl 1.5.
Screening N#Cc1c(C(F)(F)F)cc(-c2ccccc2)nc1SCC1COc2ccccc2O1 (stereo not given) returned Ab BasE inh 0.4.
For O=C(O)Cc1ccc(Br)cc1 the results were Ab BasE inh 0.4.
CCN1C(=O)/C(=C/c2c(C)c(C#N)c(=O)n(C)c2N2CCN(c3ccc(F)cc3)CC2)SC1=S was read as Ab BasE inh -27 and KSHV LANA nucl 3.1.
`COc1ccc(Cn2nnnc2CN(Cc2ccc(C)cc2)Cc2cc3cc4c(cc3[nH]c2=O)OCO4)cc1` gave Ab BasE inh 0.6 and KSHV LANA nucl -0.92.
C[C@@H]1C(=O)O[C@H]2CC34[C@H]5C[C@@H](C(C)(C)C)C36[C@@H](OC(=O)[C@@H]6O)OC4(C(=O)O5)[C@]21O (stereo not given in full) was read as Ab BasE inh -1.6 and KSHV LANA nucl 0.42.
`Cc1cc(-c2nc3n(n2)Cc2ccccc2-3)c(C)n1-c1ccccc1` gave Ab BasE inh 4.7.
O=C(Cc1ccc(Cl)c(Cl)c1)NCc1ccco1 was read as Ab BasE inh -2.3.
For O=C(COC(=O)c1ccccc1Cl)c1ccc(Cl)cc1 the results were Ab BasE inh 0.0.
For O=C(Nc1ccccc1)c1ccc(CSc2nnc(-c3ccc4c(c3)OCO4)o2)cc1 the results were Ab BasE inh -0.8.
`CSCc1nnc(NC(=O)c2ccc(S(=O)(=O)N3CCCC3)cc2)o1` gave Ab BasE inh 0.0 and KSHV LANA nucl 0.45.
Screening c1ccc2c(c1)nc1n2CCCS1 returned Ab BasE inh 4.5 and KSHV LANA nucl -0.017.
COC(=O)c1ccccc1N=Cc1c(C)[nH][nH]c1=O was read as Ab BasE inh 1.0 and KSHV LANA nucl -0.62.
Screening O=c1[nH]c(C(F)(F)F)nc2ccccc12 returned Ab BasE inh -0.4 and KSHV LANA nucl -0.026.
For O=C(OCC(=O)c1ccccc1)C1=NN(c2ccccc2)C(=O)CC1 the results were Ab BasE inh -0.1.
For Cc1ccc(-c2noc(CN3C(C)CCCC3C)n2)cc1 (stereo not given) the results were Ab BasE inh 0.9 and KSHV LANA nucl 0.72.
Screening CNc1nc(N)c(C(=O)C(C)(C)C)s1 returned Ab BasE inh -0.5 and KSHV LANA nucl 0.41.
O=C(Nc1ccccc1)Nc1ccccc1C(=O)NC1CCSC1 (stereo not given) was read as Ab BasE inh 1.6.
For CCCN=Cc1c(CCC)[nH]n(-c2nc3ccccc3s2)c1=O the results were Ab BasE inh -1.4 and KSHV LANA nucl 0.83.
N#Cc1cccc(CSc2nc3ccc(C(F)(F)F)cc3[nH]2)c1 was read as Ab BasE inh -0.1.
`CC(C)CC(C(=O)N(C)Cc1ccccc1)N1Cc2ccccc2C1=O` (stereo not given) gave Ab BasE inh 0.2 and KSHV LANA nucl 0.27.
Cc1oc2c(C)c3oc(=O)c4c(c3cc2c1C)CCCC4 was read as Ab BasE inh 3.2 and KSHV LANA nucl 0.034.
For COc1ccc(-c2nc(Cn3c(SCc4ccccc4C)nc4ccncc43)c(C)o2)cc1OC the results were Ab BasE inh -6.9 and KSHV LANA nucl -0.79.
Cc1c(C(=O)N2CCN(C(=O)C3COc4ccccc4O3)CC2)sc2nc[nH]c(=O)c12 (stereo not given) was read as Ab BasE inh 1.7.
For O=C1c2ccccc2C(=O)c2sccc21 the results were Ab BasE inh -0.3 and KSHV LANA nucl -0.04.
Cc1nc(COC(=O)c2n[nH]c3ccccc23)cs1 was read as Ab BasE inh -17.
`CCCNS(=O)(=O)c1c(C(=O)OCC)c(C)n(C)c1C` gave Ab BasE inh -3.0.
COc1ccc(OCC(O)CNC(=O)c2c(-c3ccccc3)noc2C)cc1 (stereo not given) was read as Ab BasE inh 3.7.
CCC(C)(C)C1CCC(=NNC(=O)Cc2cccn2C)CC1 (stereo not given) was read as Ab BasE inh 0.9.
Screening O=C1CCCCC1Sc1ncnc2sccc12 (stereo not given) returned Ab BasE inh -3.0.
For CNS(=O)(=O)c1ccc(NC(=S)Nc2ccc3c(c2)OCO3)cc1 the results were Ab BasE inh -1.2 and KSHV LANA nucl -1.1.
For O=C1NC2=C(C(=O)NN(c3ccccc3)C2)C(c2ccccc2)N1 (stereo not given) the results were Ab BasE inh 1.2 and KSHV LANA nucl 0.21.
`CCOC(=O)c1c(-c2cccs2)csc1NC=O` gave Ab BasE inh 1.0.
Screening CCNc1nc(NCC)nc(N(n2cnnc2)S(=O)(=O)c2ccc(C)cc2)n1 returned Ab BasE inh -3.6 and KSHV LANA nucl -0.77.
For Cc1cccc(NS(=O)(=O)c2ccc3c(c2)CC(=O)N3)c1 the results were Ab BasE inh -1.6 and KSHV LANA nucl 1.4.
`Cc1cccc(N2CCN(C(=O)C3CCCN(C(=O)c4cc5sccc5n4C)C3)CC2C)c1` (stereo not given) gave Ab BasE inh -2.4 and KSHV LANA nucl 0.009.

Quoted at random: 5 entries already listed, in no set order.
For CNS(=O)(=O)c1ccc(NC(=S)Nc2ccc3c(c2)OCO3)cc1 the results were Ab BasE inh -1.2 and KSHV LANA nucl -1.1.
COc1ccc(OCC(O)CNC(=O)c2c(-c3ccccc3)noc2C)cc1 (stereo not given) was read as Ab BasE inh 3.7.
For O=C1c2ccccc2C(=O)c2sccc21 the results were Ab BasE inh -0.3 and KSHV LANA nucl -0.04.
`Cc1cccc(N2CCN(C(=O)C3CCCN(C(=O)c4cc5sccc5n4C)C3)CC2C)c1` (stereo not given) gave Ab BasE inh -2.4 and KSHV LANA nucl 0.009.
For Cc1cccc(NS(=O)(=O)c2ccc3c(c2)CC(=O)N3)c1 the results were Ab BasE inh -1.6 and KSHV LANA nucl 1.4.

Source: PubChem
